DUX4 inh: DUX4-mediated transcription inhibition; AID 1224904; activity change, negative = inhibition, % (concentration not given with the values); 37,000 tested, 0.8% active; 293T-iDUX4 ZSCAN4-Gaussia luciferase reporter, 24 h; active compounds read low;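 active = -10% or lower and over 25 points stronger than a control reporter; inconclusive = -10% or lower with a smaller gap; inactive = above -10%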;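 note: 0% = median of neutral control wells and -100% = median of positive control wells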
DUX4 inh difference: recorded beside DUX4 inh, whose call it bears; Gaussia minus Italica difference, %; measured here: selective DUX4 reporter inhibition;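 worked out from the two reporters; negative = selective loss of the DUX4 reporter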
DUX4 inh control: second read-out of DUX4 inh, no call of its own (marks repeat the call); activity change, negative = inhibition, %; measured here: Italica tet-on control reporter;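 0 = neutral control and -100 = positive control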
Starred values were filed as active, the others as inactive; ? = inconclusive; . = no result given.

SMILES	DUX4 inh	DUX4 inh difference	DUX4 inh control
Cc1ccc(S(=O)(=O)Nc2ccc3c(c2)C(=O)N([C@@H](C)CO)C[C@H](C)[C@@H](CN(C)C(=O)Nc2c(C)noc2C)O3)cc1	2	2	-0.3
COCC#Cc1cnc2c(c1)C(=O)N([C@@H](C)CO)C[C@@H](C)[C@@H](CN(C)C(=O)CCN1CCCCC1)O2	0	1	-0.8
O=C(C[C@H]1CC[C@@H]2[C@H](COC[C@@H](O)CN2Cc2ccc(Oc3ccccc3)cc2)O1)N1CCOCC1	2	8	-6.2
COc1cc(CN2CC3(CN(C)C3)c3c([nH]c4cc(OC)ccc34)[C@H]2CO)cc(OC)c1	?	.	.
N#Cc1ccc(-c2ccc3c(c2)[C@@H]2[C@@H](CCN2C(=O)C2CCCCC2)[C@@H](CO)N3)cc1	?	.	.
C[C@H]1CN([C@@H](C)CO)C(=O)Cc2cc(NC(=O)CCC(F)(F)F)ccc2O[C@H]1CN(C)S(=O)(=O)c1ccc(Cl)cc1	-1	1	-1.6
C[C@@H]1CN([C@@H](C)CO)C(=O)Cc2cc(NC(=O)CCC(F)(F)F)ccc2O[C@H]1CN(C)C(=O)Nc1cccc2ccccc12	4	6	-2.5
CN1[C@@H]2Cn3c(ccc(-c4cccnc4)c3=O)[C@H]1[C@@H](C(=O)NCCc1ccccc1)[C@@H]2CO	-2	3	-4.5
C[C@@H]1CN([C@@H](C)CO)C(=O)c2cc(NC(=O)NC3CCCCC3)ccc2O[C@@H]1CN(C)S(C)(=O)=O	0	-3	3.1
CCC(=O)N1CC2(CCN(Cc3ccncc3)CC2)c2c(n(C)c3cc(OC)ccc23)[C@@H]1CO	1	2	-0.8
CNC[C@H]1Oc2ccc(NC(=O)Cn3cnnn3)cc2C(=O)N([C@H](C)CO)C[C@@H]1C	1	5	-3.6
CCC(=O)N1[C@H](CN(CC)C(C)=O)[C@@H](c2ccc(-c3cccnc3)cc2)[C@@H]1CO	1	-6	6.2
C[C@@H]1CN([C@@H](C)CO)S(=O)(=O)c2ccc(Br)cc2O[C@@H]1CN(C)S(=O)(=O)c1cn(C)cn1	-2	0	-2.2
COCCNC(=O)C[C@@H]1CC[C@H]2[C@@H](COc3ccc(NC(=O)Cc4ccccc4)cc3C(=O)N2C)O1	1	-3	3.5
O=C(C[C@@H]1CC[C@@H]2[C@H](COC[C@@H](O)CN2C(=O)Nc2cccc(F)c2)O1)NCCCN1CCOCC1	6	10	-4.3
COc1cccc(S(=O)(=O)N[C@H]2C=C[C@H](CC(=O)NCc3ccncc3)O[C@H]2CO)c1	6	3	2.9
COCC(=O)N1[C@@H]2c3ccc(-c4ccccc4)c(=O)n3C[C@H]1[C@H](CO)[C@H]2C(=O)NCc1ccccn1	4	-20	25
C[C@H](CO)N1C[C@H](C)[C@H](CN(C)S(=O)(=O)c2cccc(F)c2)OCc2cnnn2CCCC1=O	1	0	1.1
O=C(Nc1ccccc1F)N[C@H]1CC[C@@H](CCNC(=O)C2CC2)O[C@H]1CO	-8	-9	0.6
COCC(=O)N1[C@H](CO)[C@H](c2ccccc2)C12CN(C(=O)Nc1ccccc1F)C2	5	1	3.7
N#C[C@@H]1[C@H](c2ccccc2)[C@@H](CO)N1C(=O)CN1CCOCC1	2	1	1.0
Cc1noc(C)c1S(=O)(=O)N(C)C[C@@H]1Oc2ccc(NS(=O)(=O)c3cn(C)cn3)cc2CC(=O)N([C@@H](C)CO)C[C@H]1C	-7	-1	-6.3
CN(C)CC(=O)Nc1ccc2c(c1)[C@H]1C[C@@H](CC(=O)NCCN3CCCCC3)O[C@@H](CO)[C@H]1O2	7	4	2.8
COc1ccccc1NC(=O)N1CCCCN2[C@@H](CO)[C@H](c3ccc(C#CC4CCCC4)cc3)[C@@H]2C1	-1	-3	2.4
CC(C)CC#Cc1ccc2c(c1)O[C@@H](CN(C)C(=O)c1ccccc1F)[C@H](C)CN([C@@H](C)CO)S2(=O)=O	5	2	2.4
COc1ccccc1CNC(=O)C[C@H]1CC[C@@H]2[C@@H](COc3ccc(NC(C)=O)cc3C(=O)N2C)O1	0	-5	5.4
C[C@H](O)C#Cc1ccc2c(c1)O[C@@H](CN(C)C(=O)C1CCCCC1)[C@H](C)CN([C@H](C)CO)S2(=O)=O	0	2	-1.6
Cn1cnc(S(=O)(=O)N2CCCCN3[C@H](CO)[C@H](c4ccc(-c5ccccc5F)cc4)[C@H]3C2)c1	1	0	0.8
COCC(=O)Nc1ccc2c(c1)[C@@H]1C[C@@H](CC(=O)N3CCOCC3)O[C@H](CO)[C@@H]1O2	-8	-1	-7.1
COc1ccccc1S(=O)(=O)N(C)C[C@H]1OCc2cn(nn2)CCCC(=O)N([C@H](C)CO)C[C@@H]1C	11	14	-2.8
CN(C)C(=O)c1cccc(-c2ccc([C@H]3[C@@H](CO)N4CCCCN(CC5CCOCC5)C[C@H]34)cc2)c1	7	-2	9.0
CCCNC(=O)N1[C@H](CO)[C@@H](c2ccccc2)[C@@H]1CNC(=O)c1ccccc1	-3	-6	3.1
CO[C@H]1CN(C)C(=O)c2ccc(NS(=O)(=O)CC(F)(F)F)cc2OC[C@@H](C)N(Cc2nccs2)C[C@H]1C	2	3	-1.5
CCOC(=O)N(C)C[C@H]1OCc2ccccc2-c2ccccc2C(=O)N([C@@H](C)CO)C[C@@H]1C	7	2	5.9
COc1ccc(-c2ccc([C@H]3[C@H](CO)N4C(=O)CN(C(=O)c5ccccc5)C[C@@H]34)cc2)cc1	2	1	1.0
Cc1cc(C(=O)Nc2ccc3c(c2)C(=O)N(C)[C@@H]2CC[C@@H](CC(=O)NC4CCCC4)O[C@@H]2CO3)no1	2	0	1.9
O=C(c1cccnc1)N1CC2(C1)[C@H](c1ccccc1)[C@H](CO)N2C(=O)CC1CC1	-2	-2	-0.6
C[C@@H]1CCCCO[C@H](CN(C)Cc2ccc(C(=O)Nc3ccccc3N)cc2)[C@H](C)CN([C@H](C)CO)C(=O)c2cc(N(C)C)ccc2O1	1	1	0.3
C[C@@H]1CN([C@@H](C)CO)C(=O)c2ccccc2-c2ccccc2CO[C@H]1CN(C)S(=O)(=O)c1cccs1	-3	-14	10
O=C(C[C@@H]1CC[C@H]2[C@@H](COC[C@H](O)CN2Cc2nccs2)O1)NCc1ccc(Oc2ccccc2)cc1	?	.	.

By substructure: the entries above with an aryl methoxy group
SMILES	DUX4 inh	DUX4 inh difference	DUX4 inh control
COc1cc(CN2CC3(CN(C)C3)c3c([nH]c4cc(OC)ccc34)[C@H]2CO)cc(OC)c1	?	.	.
CCC(=O)N1CC2(CCN(Cc3ccncc3)CC2)c2c(n(C)c3cc(OC)ccc23)[C@@H]1CO	1	2	-0.8
COc1cccc(S(=O)(=O)N[C@H]2C=C[C@H](CC(=O)NCc3ccncc3)O[C@H]2CO)c1	6	3	2.9
COc1ccccc1NC(=O)N1CCCCN2[C@@H](CO)[C@H](c3ccc(C#CC4CCCC4)cc3)[C@@H]2C1	-1	-3	2.4
COc1ccccc1CNC(=O)C[C@H]1CC[C@@H]2[C@@H](COc3ccc(NC(C)=O)cc3C(=O)N2C)O1	0	-5	5.4
COc1ccccc1S(=O)(=O)N(C)C[C@H]1OCc2cn(nn2)CCCC(=O)N([C@H](C)CO)C[C@@H]1C	11	14	-2.8
COc1ccc(-c2ccc([C@H]3[C@H](CO)N4C(=O)CN(C(=O)c5ccccc5)C[C@@H]34)cc2)cc1	2	1	1.0

(next part)
SMILES	DUX4 inh	DUX4 inh difference	DUX4 inh control
O=C(NCC1CCCCC1)[C@H]1[C@H](CO)[C@H]2Cn3c(ccc(-c4ccccc4F)c3=O)[C@@H]1N2	3	5	-1.6
CCCNC(=O)N(C)C[C@H]1Oc2cc(C#C[C@@H](C)O)ccc2S(=O)(=O)N([C@@H](C)CO)C[C@H]1C	-3	1	-3.9
O=C(Nc1cc(F)ccc1F)N1CC(=O)N2[C@H](CO)[C@H](c3ccc(C#CC4CCCCC4)cc3)[C@H]2C1	-3	-6	2.9
C[C@H](NC(=O)C[C@H]1C[C@H]2c3cc(N(C)C)ccc3O[C@H]2[C@H](CO)O1)c1ccccc1	0	-4	4.0
CC(=O)N1[C@H](CO)[C@H](c2ccc(-c3cccnc3)cc2)[C@@H]1CNC(=O)C1CC1	-4	-5	1.8
COc1ccc(NC(=O)N(C)C[C@H]2OCCCC[C@@H](C)Oc3ccc(NC(=O)c4ccncc4)cc3C(=O)N([C@@H](C)CO)C[C@@H]2C)cc1	-2	-2	-0.3
CO[C@H]1CN(C)C(=O)c2ccc(NS(=O)(=O)c3ccccc3)cc2OC[C@@H](C)N(C(=O)NC(C)C)C[C@H]1C	3	0	3.2
C[C@@H]1CCCCO[C@H](CN(C)C(=O)c2ccncc2)[C@H](C)CN([C@H](C)CO)C(=O)c2cc(NS(=O)(=O)c3cccs3)ccc2O1	2	0	2.4
CCCNC(=O)N1C[C@@H](O)COC[C@H]2O[C@H](CC(=O)NCc3ccncn3)CC[C@@H]21	6	5	0.8
C[C@@H]1CCCCO[C@H](CN(C)C(=O)CCCN(C)C)[C@@H](C)CN([C@@H](C)CO)C(=O)c2cc(NC(=O)Nc3cccc4ccccc34)ccc2O1	-1	-8	7.2
Cc1cccc(S(=O)(=O)N2C[C@H](O)COC[C@H]3O[C@H](CC(=O)Nc4ccccc4)CC[C@@H]32)c1	2	0	1.7
CN1c2ccc(-c3ccccc3)cc2[C@@H]2[C@@H](CCN2C(=O)c2ccccc2F)[C@@H]1CO	8	11	-3.0
CN(C)C(=O)c1ccc(-c2ccc([C@@H]3[C@H](CO)N4CCCCN(CCC(F)(F)F)C[C@@H]34)cc2)cc1	3	1	1.8
C[C@@H]1CN([C@H](C)CO)C(=O)c2c(c3ccccc3n2C)-c2ccccc2CO[C@H]1CN(C)C(=O)[C@H]1CCCN1C	27	19	7.3
C[C@H]1CC=CC[C@H](c2ccccc2)NC(=O)[C@@H](Cc2ccccc2)N(C)C(=O)c2ccccc2O1 (mixture of isomers)	-3	-2	-0.9
CN(C[C@@H]1[C@H](c2ccccc2)[C@H](CO)N1Cc1ccccn1)S(C)(=O)=O	-3	0	-2.8
COc1cccc(S(=O)(=O)Nc2ccc3c(c2)[C@H]2C[C@@H](CC(=O)NCCc4ccccc4)O[C@H](CO)[C@H]2O3)c1	?	.	.
CCNC(=O)[C@H]1[C@H](CO)[C@H]2Cn3c(ccc(C4=CCCCC4)c3=O)[C@H]2N1Cc1ccccc1	0	5	-5.7
C[C@@H]1CCCCO[C@H](CN(C)C(=O)Cc2ccccc2)[C@H](C)CN([C@H](C)CO)C(=O)c2cc(NC(=O)c3ccncc3)ccc2O1	6	3	3.2
CC(=O)N1[C@@H]2Cn3c(ccc(/C=C/c4ccccc4)c3=O)[C@H]1[C@@H](C(=O)NCC1CC1)[C@@H]2CO	-1	-2	0.8

Structures from the list above that contain two or more sulfur atoms (5):
SMILES	DUX4 inh	DUX4 inh difference	DUX4 inh control
C[C@@H]1CN([C@@H](C)CO)S(=O)(=O)c2ccc(Br)cc2O[C@@H]1CN(C)S(=O)(=O)c1cn(C)cn1	-2	0	-2.2
Cc1noc(C)c1S(=O)(=O)N(C)C[C@@H]1Oc2ccc(NS(=O)(=O)c3cn(C)cn3)cc2CC(=O)N([C@@H](C)CO)C[C@H]1C	-7	-1	-6.3
CO[C@H]1CN(C)C(=O)c2ccc(NS(=O)(=O)CC(F)(F)F)cc2OC[C@@H](C)N(Cc2nccs2)C[C@H]1C	2	3	-1.5
C[C@@H]1CN([C@@H](C)CO)C(=O)c2ccccc2-c2ccccc2CO[C@H]1CN(C)S(=O)(=O)c1cccs1	-3	-14	10
C[C@@H]1CCCCO[C@H](CN(C)C(=O)c2ccncc2)[C@H](C)CN([C@H](C)CO)C(=O)c2cc(NS(=O)(=O)c3cccs3)ccc2O1	2	0	2.4

Later entries.
SMILES	DUX4 inh	DUX4 inh difference	DUX4 inh control
O=C(Nc1ccc2c(c1)[C@@H]1C[C@@H](CC(=O)N3CCc4ccccc4C3)O[C@@H](CO)[C@@H]1O2)NC1CCCC1	?	.	.
CCCNC(=O)[C@@H]1[C@@H](CO)[C@@H]2Cn3c(ccc(-c4ccncc4)c3=O)[C@H]1N2C(=O)CC1CC1	7	1	6.8
CCNC(=O)C[C@@H]1CC[C@H]2[C@@H](COC[C@@H](O)CN2S(=O)(=O)c2ccc(Oc3ccccc3)cc2)O1	9	10	-1.2
COc1ccccc1NC(=O)N(C)C[C@H]1OCc2ccccc2-c2c(n(C)c3ccccc23)C(=O)N([C@H](C)CO)C[C@H]1C	-3	0	-3.6
CNC(=O)C[C@H]1CC[C@H]2[C@@H](COc3ccc(NC(=O)Nc4ccc(Cl)cc4)cc3C(=O)N2C)O1	0	0	0.5
C[C@H](CO)N1C[C@H](C)[C@H](CN(C)S(=O)(=O)c2cccs2)Oc2ccc(NC(=O)Cc3cn(C)c4ccccc34)cc2CC1=O	-4	-2	-1.9
CC=Cc1ccc2n(c1=O)C[C@H]1[C@H](CO)[C@@H](C(=O)N3CCC(Cc4ccccc4)CC3)N(CCC)[C@@H]21 (mixture of isomers)	?	.	.
COc1ccccc1-c1ccc2n(c1=O)C[C@@H]1[C@@H](CO)[C@H](C(=O)Nc3nccs3)N(CC3CC3)[C@H]21	-5	-1	-3.8
CC(C)N(C[C@H]1[C@H](c2ccccc2)[C@H](CO)N1S(C)(=O)=O)C(=O)CN(C)C	-4	-4	-0.7
C[C@H](CO)N1C[C@H](C)[C@@H](CN(C)Cc2ccc(-c3ccccc3)cc2)Oc2ccc(NC(=O)CCC(F)(F)F)cc2C1=O	0	1	-0.8
COC(=O)C[C@@H]1CC[C@@H]2[C@@H](COc3ccc(NC(=O)NCc4ccccc4)cc3C(=O)N2C)O1	-5	-4	-1.1
CN(C)C(=O)C[C@H]1C=C[C@@H](NC(=O)C2CCOCC2)[C@H](CO)O1	-1	-3	2.2

Source: PubChem BioAssay

The list is partial; rates above refer to the full screens.
